Screening results as filed in PubChem BioAssay.
HTT promoter inh – HTT promoter inhibition; HEK293 HTT promoter firefly luciferase reporter (activity 0% = vehicle and -100% = no light), 24 h; Potency, µM (top dose mostly 57.5 µM), without a hit: at the top dose activity change, negative = inhibition, most hits filed as inhibitors; actives 0.93% (n = 48,000); active = well fitted inhibition curve with a large enough effect; inconclusive = small, poorly fitted or top-dose-only effect; inactive = no such curve, though single readings can be large or run the other way; note: nearly all actives have a fitted effect of over 50% in size
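Firefly luciferase signal from promoter-reporter HEK293 cells was scaled between vehicle (0%) and zero RLU (-100%). Compounds were tested at final concentrations of up to 57.5 uM over 24 h at 37 degrees C. PTC124 at 50 uM final served as control inhibitor.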
PMP22 txn – modulators of PMP22 gene transcription in S16 Schwann cells. actives 2% (n = 43,000). Potency, µM (top dose mostly 57.5 µM), inactives show top-dose activity change, negative = inhibition, usual class: inhibitors. AID 1508649. S16 Pmp22-F2sN Schwann cells (luciferase reporters placed in the Pmp22 gene), FLuc/NLuc coincidence luminescence, 24 h; active = clear falling dose curves in both reporters; inconclusive = both reporters move, but less clearly or upward; inactive = either reporter flat; the % is the NLuc reporter signal; note: % is set by controls: 0 for no effect and ±100 for the full control effect; some results filed as inactive show a strong effect at the top dose
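Schwann cells carrying the coincidence reporter were exposed to library compounds for 24 h at 37C, then lysed and read for FLuc and, after quenching, NLuc luminescence on a CCD imager.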
An asterisk follows results filed as active; ? = inconclusive; · = not tested or not shown. Potency is the fitted concentration of half-maximal effect. The list is partial. The share of hits here may be higher or lower than overall.

#1 CCOc1ccccc1C(=O)Nc1cc2c(cc1N1CCOCC1)n(C)c(=O)n2C
#2 Cc1cccc(CN2C(=O)c3ccccc3Sc3ccc(C(=O)NCc4ccco4)cc32)c1
#3 O=C(NCCO)C(=O)NCC(c1ccc2c(c1)OCO2)N1CCOCC1 (configuration not stated)
#4 Cc1ccc(NC(=O)Cn2c(=O)n(CCCCCC(=O)NCc3ccc(F)cc3)c(=O)c3sccc32)cc1C
#5 CCCCc1ccc(NC(=O)CSc2nc3ccccc3nc2N2CCCCC2)cc1

| compound no. | 1 | 2 | 3 | 4 | 5 |
| --- | --- | --- | --- | --- | --- |
| HTT promoter inh | -5% | ? | 4% | -11% | 3% |
| PMP22 txn | -24% | 3% | 1% | ? | -29% |

Rewritten as labelled records: part of the list above
(1) CCOc1ccccc1C(=O)Nc1cc2c(cc1N1CCOCC1)n(C)c(=O)n2C
  HTT promoter inh: -5%
  PMP22 txn: -24%
(2) Cc1cccc(CN2C(=O)c3ccccc3Sc3ccc(C(=O)NCc4ccco4)cc32)c1
  HTT promoter inh: ?
  PMP22 txn: 3%
(3) O=C(NCCO)C(=O)NCC(c1ccc2c(c1)OCO2)N1CCOCC1 (configuration not stated)
  HTT promoter inh: 4%
  PMP22 txn: 1%
(4) Cc1ccc(NC(=O)Cn2c(=O)n(CCCCCC(=O)NCc3ccc(F)cc3)c(=O)c3sccc32)cc1C
  HTT promoter inh: -11%
  PMP22 txn: ?

Back to the main list; the two compounds before the break are reprinted first.
#4 Cc1ccc(NC(=O)Cn2c(=O)n(CCCCCC(=O)NCc3ccc(F)cc3)c(=O)c3sccc32)cc1C
#5 CCCCc1ccc(NC(=O)CSc2nc3ccccc3nc2N2CCCCC2)cc1
#6 COC(=O)CSc1nc2sc3c(c2c(=O)n1Cc1ccccc1)CCC(C(C)(C)C)C3 (configuration not stated)
#7 CCc1ccc(NC(=O)CCc2c(C)n(C)c3cc(-c4ccccc4C)nn3c2=O)cc1
#8 Cc1ccc(-c2nc3ncccc3o2)cc1NC(=O)c1ccc(-c2cccc(Cl)c2C)o1
#9 COc1ccc(OC)c(NC(=O)CCc2nc(-c3ccc(C)cc3)no2)c1
#10 CC1=C(C(=O)Nc2ccc(F)cc2F)C2(CCN(C(C)C)CC2)OC1=O

| compound no. | 4 | 5 | 6 | 7 | 8 | 9 | 10 |
| --- | --- | --- | --- | --- | --- | --- | --- |
| HTT promoter inh | -11% | 3% | -14% | 2% | -8% | -22% | -2% |
| PMP22 txn | ? | -29% | 0% | 12% | ? | 0% | ? |

Later entries
Order of values: HTT promoter inh | PMP22 txn
11	Cc1nc2ccc(CN(C)c3ccc(C(=O)N[C@@H](CCC(=O)O)C(=O)O)s3)cc2c(=O)[nH]1
 : -13% | ·
12	COc1ccc(-n2c(=O)c3c4c(sc3n(CC(=O)C(C)(C)C)c2=O)CCCC4)c(OC)c1
 : -3% | ?
13	CCOC(=O)c1ccccc1NC(=O)CSc1ccc(-c2sc(-c3ccccc3)nc2C)nn1
 : -6% | -48%
14	CC(=O)c1[nH]c(C)c(C(=O)NCc2ccc(Cl)cc2)c1C
 : 16µM* | -36%
15	CCCn1cc(S(=O)(=O)c2ccc(OC)cc2)c(=O)c2cc(F)c(N3CCCC(C)C3)cc21 (configuration not stated)
 : -12% | ?
16	CCOc1ccc(Nc2c(S(=O)(=O)c3ccc(Cl)cc3)cnc3ccc(OCC)cc23)cc1
 : ? | ?
17	Cn1c2ccccc2c2cnn(CC(=O)Nc3ccccc3C(F)(F)F)c(=O)c21
 : 8% | 0%
18	COCCCNC(=O)C(C)n1c2ccccc2c2cnn(C)c(=O)c21 (configuration not stated)
 : -10% | -1%
19	CC(=O)N1c2ccc(S(=O)(=O)NCC3CCC(C(=O)Nc4cc(C)ccc4C)CC3)cc2CC1C (configuration not stated)
 : ? | ?
20	O=C(CCS(=O)(=O)c1ccc(Br)s1)Nc1c(F)cccc1F
 : -10% | -35%
21	COC(=O)c1ccc(Cl)cc1NC(=O)NCCc1c(C)nn(C)c1C
 : 0% | -27%
22	Nc1cc(=O)nc(SCC(=O)Nc2ccccc2)n1CCc1ccccc1
 : 0% | 7%
23	CCOC(=O)c1cc(-c2ccc(F)cc2)n(CC(=O)NCc2ccc(OC)cc2)c1C
 : ? | -21%

HTT promoter inh: what is marked active above
| no. | smiles | HTT promoter inh |
| --- | --- | --- |
| 14 | CC(=O)c1[nH]c(C)c(C(=O)NCc2ccc(Cl)cc2)c1C | 16µM* |

3 of the entries above in order of their number in HTT promoter inh, smallest number first.
| nr | canonical_smiles | HTT promoter inh |
| --- | --- | --- |
| 11 | Cc1nc2ccc(CN(C)c3ccc(C(=O)N[C@@H](CCC(=O)O)C(=O)O)s3)cc2c(=O)[nH]1 | -13% |
| 18 | COCCCNC(=O)C(C)n1c2ccccc2c2cnn(C)c(=O)c21 (configuration not stated) | -10% |
| 17 | Cn1c2ccccc2c2cnn(CC(=O)Nc3ccccc3C(F)(F)F)c(=O)c21 | 8% |
